TRPV1 potentiator = HTS Assay for Compounds that Act as Potentiators of the Vanilloid Receptor 1 | TRPV1-expressing cells, Fluo-8 calcium influx, capsaicin EC20 potentiation; host cell line not named in the record; control for the full effect not named in the record | hit rate 0.02% among 320,000 | Transient receptor potential cation channel subfamily V member 1 (Homo sapiens), Q8NER1 | potentiation, % at 8.33 µM; active means potentiation above 80%; inconclusive means 30% to 80%; inactive means below 30%; note: 0% is about no effect
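TRPV1-expressing cells were cultured overnight at 35.5C and loaded with Fluo-8 calcium dye for 40 to 90 min at room temperature. After a 10 s baseline, compound was added and calcium influx was read kinetically for 3 min (ex 480/em 520 nm).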
D2 PAM = Beta-Arrestin HTS for Positive Allosteric Modulators of the Human D2 Dopamine Receptor: Potentiators. hit rate 0.23% among 360,000. DiscoveRx D2 beta-arrestin cells, luminescence, 90 min; 100% = 57 uM dopamine signal. AID 624464, 2012. D(2) dopamine receptor (Homo sapiens), P14416. potentiation, % (concentration not given with the values); active = potentiation of 50% or more; inconclusive = 30% to 50%; inactive = 30% or less;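 note: compound concentration not given in the record; tested on top of an EC20 dose of dopamine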
Target sequence (P14416 whole entry, looked up): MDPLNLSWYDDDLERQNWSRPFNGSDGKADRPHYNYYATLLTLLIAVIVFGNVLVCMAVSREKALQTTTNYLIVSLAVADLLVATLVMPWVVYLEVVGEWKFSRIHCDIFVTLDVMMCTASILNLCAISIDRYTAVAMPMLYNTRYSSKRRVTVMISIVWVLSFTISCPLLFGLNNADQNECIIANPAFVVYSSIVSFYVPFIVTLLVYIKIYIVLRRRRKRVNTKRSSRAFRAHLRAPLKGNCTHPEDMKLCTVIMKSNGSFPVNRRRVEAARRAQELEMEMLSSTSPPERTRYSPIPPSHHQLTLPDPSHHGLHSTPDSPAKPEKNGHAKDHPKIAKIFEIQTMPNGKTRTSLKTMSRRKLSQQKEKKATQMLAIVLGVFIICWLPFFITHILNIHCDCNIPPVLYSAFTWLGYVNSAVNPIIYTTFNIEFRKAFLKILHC
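D2 cells co-treated with compound plus 50 nM dopamine (EC20) for 90 min at 37 deg C to detect potentiation. Beta-arrestin recruitment was read as enzyme-fragment luminescence after 1 h at ambient temperature. Full response was set by 57 uM dopamine.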
Sfp inh = qHTS Assay for Inhibitors of Bacillus subtilis Sfp phosphopantetheinyl transferase (PPTase) | 4'-phosphopantetheinyl transferase ffp (Bacillus subtilis), Q9F4F7 | Biochemical Sfp PPTase activity, qHTS | Potency, µM, without a hit: max response, negative = inhibition, hits mostly inhibitors | hit rate 3.5% among 310,000 | AID 1490, 2009; active = well fitted inhibition curve with a large enough effect; inconclusive = small, poorly fitted or top-dose-only effect, or another doubt; inactive = no such curve, though single readings can be large or run the other way;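 note: the enzyme is Sfp with the accession as filed and its product quenches rhodamine fluorescence; potency is the fitted concentration of half-maximal effect; 0% = enzyme reaction without inhibitor and -100% = no enzyme wells; top concentration of the series not given in the record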
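Step 1, compound plus 15 nM Sfp-PPTase, 15 min, room temperature. Step 2, add rhodamine-CoA (5 uM) and BHQ-2-YbbR (12.5 uM). Step 3, read 525/598 nm fluorescence at 0 and 30 min.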
PINK1 expr mod = A Quantitative High throughput Screen to Identify Chemical Modulators of PINK1 Expression. PINK1 immunofluorescence, high-content cytometry, 24 h. Potency, µM (doses to about 76.6 µM), without a hit: at the highest dose activation (PINK1 increase), usual class: activators. hit rate 0.2% among 410,000; active = well fitted activation curve with a large enough effect; inconclusive = small, poorly fitted or top-dose-only effect; inactive = flat fitted curve, though single readings scatter; cell line not stated here;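 note: potency is the fitted concentration of half-maximal effect; % of control where 0% means no effect; nearly all actives have a fitted effect of over 65% in size; a mitochondrial uncoupler was the plate control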
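PINK1 protein, normally rapidly degraded, was detected by immunofluorescence after 24 hour compound treatment of a stable cell line. Titration data (5 concentrations) came from laser-scanning cytometry, with CCCP-treated wells as controls.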
D2 ag = Beta-Arrestin HTS for Positive Allosteric Modulators of the Human D2 Dopamine Receptor: Agonists | D(2) dopamine receptor (Homo sapiens), P14416 | DiscoveRx PathHunter D2 beta-arrestin, luminescence, 90 min; 100% = 57 uM dopamine signal | activation, % (concentration not given with the values) | hit rate 0.084% among 360,000 | AID 624465, 2012; in the data active = activation above about 40%; inconclusive = about 15% to 40%; inactive = below about 15%; note: compound concentration not given in the record; the text of the record calls up to 30% inactive
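DiscoveRx PathHunter D2 beta-arrestin cells (2,100/well) attached overnight, then compound-stimulated 90 min at 37 C in HBSS/10 mM HEPES/0.1% Tween-20 buffer; beta-galactosidase complementation read by luminescence after 1 h at ambient temperature. Dopamine 57 uM final (EC100) as control.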
CtBP-E1A inh = qHTS Assay for Inhibitors of the CtBP/E1A Interaction. AlphaScreen GST-E1A/His-CtBP binding, 1536-well; hits give low values; control for the full effect not named in the record. activity change, % (concentration not given with the values). hit rate 0.49% among 340,000. CtBP / adenovirus E1A interaction (AlphaScreen); in the data active means activity change below about -65%; inconclusive means about -30% to -65%; inactive means above about -30%; note: % is set by controls: 0 for no effect and ±100 for the full control effect
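Protein mix (5X: 125 nM each GST-E1A, His-CtBP) was incubated with pinned compound 2 h at 37 deg C in dark, in 50 mM Tris pH 8.0 buffer with 300 mM NaCl. Glutathione donor and nickel acceptor beads followed; AlphaScreen signal read after 1 h.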
Six1-Eya2 blk = qHTS Assay for Inhibitors of the Six1/Eya2 Interaction; AID 651725, 2012; AlphaScreen GST-Six1/His-Eya2 binding, biochemical; hits give low values; control for the full effect not named in the record; activity change, % (test concentration not listed); Homeobox protein SIX1 (Homo sapiens) + Protein phosphatase EYA2 (Homo sapiens), …; hit rate 0.56% among 360,000; in the data active = activity change below about -65%; inconclusive = about -30% to -65%; inactive = above about -30%; note: % is set by controls: 0 for no effect and ±100 for the full control effect; compound concentration not given in the record
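GST-Six1 + His-Eya2 (5X stock: 250/500 nM); Tris pH 8.0, 300 mM NaCl, 0.05% BSA, 0.02% Tween 20; GSH donor/Ni acceptor beads; 1 h 37 °C dark; AlphaScreen readout.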
Active calls of the source: *; ? = inconclusive; . = no result given; [ ] = dose if it differs, or a comment.

smiles,TRPV1 potentiator,D2 PAM,Sfp inh,PINK1 expr mod,D2 ag,CtBP-E1A inh,Six1-Eya2 blk
Cc1cc(C(=O)N2CCCC(N3CCN(c4cccc(C(F)(F)F)c4)CC3)C2)nn1C (stereo not drawn),-2.8,-19.5,2.6%,1.6%,-1.2,-0.4,1.9
Cc1cc(C(=O)N/N=C/c2ccc(-c3cccc(Cl)c3)o2)n[nH]1,19.9,-10.3,12.6%,2.3%,-1.5,-15.7,-16.7
COc1cccc(OCCNS(=O)(=O)c2ccccc2[N+](=O)[O-])c1,.,0.9,.,0.2%,10.5,-2.2,-7.1
CCOc1ccc2cc(C#N)c(SCC(=O)OC)nc2c1,-7.2,-1.7,6.4%,1.4%,-2.5,4.1,-0.5
O=C(CCCOc1ccc(Cl)cc1Cl)N/N=C/c1ccccc1,-24.6,-7.2,8.0%,7.0%,-6.0,1.6,-4.2
O=C(NCc1ccco1)c1ccc2c(c1)C(=O)c1ccccc1-2,-15.2,-6.9,11.2µM*,?,2.6,-5.8,-15.8
O=C(CSc1n[nH]c(-c2ccccc2)n1)NCc1cccc(C(=O)O)c1,6.2,-2.2,1.0%,0.9%,-8.6,0.0,0.8
O=C(Nc1cccc(NC(=O)c2ccc3c(c2)OCO3)c1)c1ccccc1,-5.9,0.5,4.0%,1.8%,-1.2,-1.5,0.9
CC(=O)c1ccc(N2CCN(C(=O)CCCn3c(=O)[nH]c4ccccc4c3=O)CC2)cc1,-3.2,-4.2,13.2%,1.0%,0.7,-4.2,4.6
Cc1ccc(C(C(=O)NC2CCCCC2)N(C(=O)Cc2c[nH]c3ccccc23)c2ccccc2C)o1 (stereo not drawn),1.8,-8.7,13.4%,2.3%,0.0,-17.0,1.9
Oc1cccc2c(NC(=S)Nc3ccc(OC(F)F)cc3)cccc12,-1.1,-6.4,56.2µM*,0.1%,4.5,-20.3,-10.7
COc1ccc(CC(=O)Nc2cccc(S(=O)(=O)N3CCOCC3)c2)cc1OC,-10.1,-1.6,.,0.0%,-0.3,-3.3,-5.9
CC(C)Nc1nc(NC(C)C)nc(OCCOC(=O)Nc2ccccc2)n1,12.2,-5.1,9.5%,5.0%[38.3 µM],-1.8,2.5,0.4
COc1ccc(C(=O)Nc2ccc(N3CCCC3)cc2)cc1OC,-17.9,-0.8,-8.0%,1.1%,1.2,-6.0,-13.1
COCc1cccc(NC(=O)CCc2ccccc2)c1,-12.2,5.2,5.8%,-2.6%,2.0,11.3,1.3
COc1cccc(/C=C/c2ccc3cccc(O)c3n2)c1OC,?,-31.3,-24.4%,5.3%,-11.9,.,-10.3
Cc1cccc(C)c1-n1ncc(C(=O)NC2CCCC2)c1C1CCNCC1,-9.5,1.1,10.4%,-1.7%,-1.0,0.0,0.1
COc1ccc(-c2csc(N(CCCN3CCOCC3)C(=O)CCl)n2)cc1,28.3,-6.6,?,0.7%,0.8,4.9,1.7
CCCCCC(=O)N1C[C@@H](O)[C@H](n2cc(-c3ccc(F)cc3)nn2)C[C@@H]1c1ccc(C)cc1,.,-8.3,.,9.9%,-1.5,-16.9,-0.5
COc1cccc(/C=N/NC(=O)c2c(C)nc3ccc(Br)cn23)c1,-0.4,1.9,17.6%,0.6%,2.6,13.4,0.5
CN(C)c1nc(=NCc2ccco2)ss1,.,-65.1,0.501µM*,-0.4%,-25.0,.,-11.4
O=C1c2ccccc2C(O)N1CCN1CCOCC1 (stereo not drawn),16.0,-3.9,20.6%,0.3%,-0.3,0.9,3.2
Cc1cc(/C=C2\C(=N)N3N=C(CC(=O)N4CCOCC4)SC3=NC2=O)c(C)n1-c1ccccc1,12.0,-5.4,13.2%,-0.5%,-3.6,.,-8.7
CC(C)[C@H]1C=C(C(=O)O)O[C@@H](OCCCCO)C1,-13.6,-9.5,?,0.4%,-7.1,-21.1,?
COc1ccc(F)cc1S(=O)(=O)n1nc(C)cc1C,-15.4,-1.8,9.0%,0.8%,1.3,2.9,0.7
Cc1ccc(CS(=O)(=O)Cc2ccc(C(=O)NCc3cccs3)o2)cc1,-3.4,-8.1,14.1%,0.3%,4.3,-15.8,-11.7
O=C(Nc1ccc(C(F)(F)F)cc1)c1ccc2nc[nH]c2c1,1.0,-0.3,-3.1%,4.2%,0.3,0.6,0.0
CCCC(C(=O)NCc1ccco1)N(Cc1ccco1)C(=O)CNS(=O)(=O)c1ccccc1 (stereo not drawn),3.4,-6.2,-7.2%,-2.1%,5.6,-0.8,-6.3
O=S(=O)(c1cnc[nH]1)N1CCN(C(c2ccc(F)cc2)c2ccc(F)cc2)CC1,-8.4,-3.7,-7.1%,1.0%,0.0,.,-4.4
COc1ccc(N2CC(C)Cn3c2nc2c3c(=O)n(Cc3ccc(C)cc3)c(=O)n2C)c(OC)c1 (stereo not drawn),-13.4,-1.8,-14.0%,8.0%,-3.2,-19.3,-7.8
Cc1cccc(C)c1NC(=O)CSCC(=O)O,-18.3,4.0,-0.8%,0.5%,-0.6,-0.4,14.4
CCCCOC(=O)C1CCCC(C)N1 (stereo not drawn),-2.1,-2.9,1.3%,?,-0.3,-24.7,4.4
O=C(Nc1cc(C(F)(F)F)ccc1N1CCOCC1)c1cccnc1,-15.6,-0.5,13.9%,?,1.8,7.0,-1.1
O=C(NNC(=O)c1ccc(F)cc1F)c1ccc2c(c1)OCO2,-24.4,4.0,?,2.4%,-2.0,6.3,-2.7
COc1ccccc1C(=O)COC(=O)CCN=C1NS(=O)(=O)c2ccccc21,-8.1,-16.2,.,-0.3%,2.0,2.8,-6.2
COc1cc(/C=C/C(=O)OCC(=O)NC(=O)NCc2ccccc2)ccc1OCC#N,21.6,-9.1,-2.3%,13.0%,3.1,.,-0.4
O=C(Nc1nnc([C@@H]2C[C@H](O)[C@@H](CO)O2)s1)c1cccc(C(F)(F)F)c1,.,-1.8,.,-0.2%,2.3,-20.5,9.5
Cc1cc(OC(=O)c2cc(C(F)(F)F)cc(C(F)(F)F)c2)c([N+](=O)[O-])c(=O)[nH]1,13.4,-2.0,16.5%,1.3%,-0.9,13.0,2.4
COCC(C)Nc1nc(C)c(C(C)=O)s1 (stereo not drawn),-4.0,-8.2,15.9%,0.0%,-3.8,3.1,4.3
COc1ccccc1Nc1nc2c(C)cccc2cc1C#N,1.8,-7.4,1.2%,14.6%,-2.0,9.2,27.6
NC(CSC1(c2ccc(F)cc2)c2ccccc2-c2ccccc21)C(=O)O (stereo not drawn),.,-12.2,.,4.8%,-0.7,3.4,1.2
COC(=O)c1cc(C#N)c(OC(C)C)nc1C,-1.3,-5.6,15.7%,0.5%,4.7,-1.3,0.2
C[C@H](NC(=O)c1nc[nH]c1C(=O)N1CCN(c2ccccc2)CC1)C(=O)OCc1ccccc1,28.4,-3.0,1.0%,4.1%,-1.3,-17.0,-11.4
Cc1ccc(C(=O)O/N=C(\N)Cc2cccs2)c(Cl)c1,?,11.0,12.9%,-1.8%,?,27.2,4.3
CCc1nc(N2CCN(C(C)=O)CC2)c(C#N)c2c1COC(C)(C)C2,-9.5,-1.7,6.0%,0.6%,-2.8,-3.3,-2.1
C[C@@H]1CC[C@]2(O[C@@H](CCO)C[C@@H](O)[C@@H]2O)O1,?,-2.0,16.5%,-1.1%,-4.4,-4.8,9.0
CCc1cc(=O)oc2c3c(cc(OCC(=O)N[C@H](C(=O)O)[C@H](C)CC)c12)OC(C)(C)CC3,13.9,-0.9,14.2%,-0.5%,-0.7,-10.9,-11.1
C[C@]12c3[nH]c4ccc(Cl)cc4c3CCN1C(=O)[C@@H](CC(=O)NCCC1=CCCCC1)C[C@@H]2C(=O)N1CCOCC1,.,.,.,24.6%,1.3,-0.8,-9.6
CCN(Cc1ccncc1)C(=O)C1CCN(S(=O)(=O)c2cccs2)CC1,0.4,0.4,0.8%,-3.3%,-2.3,-21.3,-6.3
CC1Nc2ncnc(N3CCc4ccccc4C3)c2N(Cc2ccc(Cl)cc2)C1=O (stereo not drawn),?,-42.3,.,5.0%,-2.6,-0.1,-0.7

Going on with the list.
smiles,TRPV1 potentiator,D2 PAM,Sfp inh,PINK1 expr mod,D2 ag,CtBP-E1A inh,Six1-Eya2 blk
COc1ccc(NC(=O)C2c3ccccc3OCC(=O)N2Cc2ccco2)cc1 (stereo not drawn),.,.,.,3.4%,.,-6.8,8.5
C(=N/Nc1nccs1)/c1cccnc1,-15.4,2.0,50.1µM*,0.3%,-2.8,0.2,-1.0
COc1cccc(OC)c1NC(=O)Cn1nc(C)c2ccccc2c1=O,-12.3,-1.0,10.2%,-0.3%,-2.4,1.3,1.7
CN1CCN(c2ccc(NC(=O)COc3ccccc3[N+](=O)[O-])cc2)CC1,-3.4,-24.4,-2.1%,-1.9%,-2.2,-11.0,6.6
COc1ccc(C2=NOC(C(=O)NCCN3CCOCC3)C2)cc1 (stereo not drawn),11.2,-9.9,3.2%,-0.5%[38.3 µM],-0.2,5.7,0.7
CCOc1ccc(OCC(=O)Nc2cccc(S(=O)(=O)NC3=NCCC3)c2)cc1,.,-5.8,.,7.6%,-2.8,-0.1,-8.2
O=c1c2c3nc4ccccc4nc3n(/N=C/c3ccco3)c2ncn1CCC1=CCCCC1,9.8,-6.1,?,4.9%[38.3 µM],0.4,48.9,-4.2
COc1ccc(CCC(=O)N2CCCSC2=Nc2ccc(C(C)=O)cc2)cc1,1.8,-6.8,-1.0%,6.0%,0.0,7.8,-0.5
CCOc1ccccc1NC(=O)c1cccnc1,.,-10.9,.,-0.9%,-1.9,7.0,19.9

Compound activity deposited in PubChem BioAssay by National Center for Advancing Translational Sciences (NCATS).
